Source: PubChem
Arbovirus inh: antivirals against arbovirus infection. hit rate 0.37% among 200,000. inhibition, % at 10 µM. arbovirus infection cell-based antiviral screen;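 active = inhibition from about 30%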;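 also: bluetongue infection of BSR cells; cell survival read as ATP light after 72 h; 0% = infected wells without compound and 100% = uninfected wells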
Mtb bLac sens: beta-lactam sensitization of Mtb H37Rv | M. tuberculosis H37Rv growth with meropenem, percent inhibition; hits of this screen are not shown here | inhibition, % at 25 µM | hit rate 0.27% among 330,000;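 active = about 74% or more and at least 40 points above the plate without the antibiotic, then above 30% in a dose series; inconclusive = first-round hits that could not be retested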;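 also: growth measured after seven days incubation then overnight dye step; 0% = bacteria only wells and 100% = bacteria with antibiotic; twin plates without the antibiotic show which effects depend on it; some results filed as inactive read as strong as hits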
YopH PTP inh: YopH (Yersinia) phosphatase inhibition | hit rate 0.16% among 140,000 | fluorescence Ex485/Em525 | inhibition, %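 (about 10 µM by stock and volumes)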;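 active = inhibition of 50% or more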;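 also: controls were vehicle for no effect and minimum signal wells for full effect; inactives centre near -20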
Mtb H37Rv: M. tuberculosis H37Rv growth inhibitors, H37Rv strain (AID 1626) | M. tuberculosis H37Rv growth inhibition; higher % means a stronger effect | inhibition, % at 10 µM, or IC50 in µM where a hit was titrated | hit rate 0.95% among 220,000;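 active = confirmed in a dose series; inconclusive = inhibition above 80% but not taken into the dose series; inactive = below 80% or under 30% at every dose of the series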;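 also: bacteria incubated seven days before Alamar blue readout; 0% = bacteria only wells and 100% = bacteria with antibiotic wells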
RecA splice inh: inhibitors of M. tuberculosis RecA intein splicing; cell-free RecA intein splicing, fluorescence; inhibition, %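 (about 9 µM by stock and volumes)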; hit rate 0.75% among 290,000; in the data active = inhibition above about 30%; inconclusive = no clear call, values can overlap the other calls;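 also: 0% = vehicle wells and 100% = reference inhibitor control wells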
Target sequence (P9WHJ3 whole entry, looked up, canonical isoform): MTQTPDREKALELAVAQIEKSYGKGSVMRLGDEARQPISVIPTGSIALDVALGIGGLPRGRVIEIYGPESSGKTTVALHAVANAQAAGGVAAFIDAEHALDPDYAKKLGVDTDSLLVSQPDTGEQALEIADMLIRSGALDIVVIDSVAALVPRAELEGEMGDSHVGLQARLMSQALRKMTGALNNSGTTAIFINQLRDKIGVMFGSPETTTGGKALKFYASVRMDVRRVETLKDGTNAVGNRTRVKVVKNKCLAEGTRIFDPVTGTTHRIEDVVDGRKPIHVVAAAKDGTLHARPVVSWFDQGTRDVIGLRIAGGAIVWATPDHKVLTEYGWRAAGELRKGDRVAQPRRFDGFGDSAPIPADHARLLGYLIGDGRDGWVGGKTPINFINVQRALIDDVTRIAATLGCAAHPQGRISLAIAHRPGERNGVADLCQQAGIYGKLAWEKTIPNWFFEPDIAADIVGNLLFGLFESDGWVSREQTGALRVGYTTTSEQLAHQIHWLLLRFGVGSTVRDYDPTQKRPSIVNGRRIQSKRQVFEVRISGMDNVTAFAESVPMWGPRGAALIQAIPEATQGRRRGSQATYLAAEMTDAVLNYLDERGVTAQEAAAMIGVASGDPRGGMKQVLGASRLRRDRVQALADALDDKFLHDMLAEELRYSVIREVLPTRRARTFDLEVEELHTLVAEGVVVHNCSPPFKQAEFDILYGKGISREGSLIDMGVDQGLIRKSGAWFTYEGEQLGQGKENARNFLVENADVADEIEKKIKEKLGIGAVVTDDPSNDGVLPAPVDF
Arbovirus inh repeat: further read-out of Arbovirus inh, marked with its call; inhibition, %; measured here: 10K subset replicate screen; many hits read low in the repeat;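 first of two repeat runs on a subset; 0% = infected and 100% = uninfected wells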
Starred values were filed as active, the others as inactive; ? = inconclusive; / = no result given. An excerpt; the hit share may differ from the screen's.

SMILES	Arbovirus inh	Mtb bLac sens	YopH PTP inh	Mtb H37Rv	RecA splice inh	others
CCN(CC)S(=O)(=O)c1ccc(C(=O)OCC(=O)N2CCN(C(=O)c3ccco3)CC2)cc1	3.2	-5.6	-39.8	-1.4%	-1.4	Arbovirus inh repeat=4.1
CCC1CCCN1Cn1cnc2c([nH]c3ccc(C)cc32)c1=O (centres undefined)	-12.7	0.4	-27.2	-10.7%	0.8
Cc1cc(C)n2nc(C(=O)N/N=C/c3cccs3)nc2n1	-1.1	-3.1	/	-3.9%	-1.6
CC1(C)C(=O)Nc2ccccc2N1C(=O)COC(=O)C12CC3CC(CC(O)(C3)C1)C2	-1.9	?	-24.6	-2.7%	0.2
O=C1c2ccccc2C(O)(c2ccccc2)N1c1ccncc1 (centres undefined)	/	3.1	/	-1.5%	1.1
CCOC(=O)CSc1nc2cc3c(cc2cc1C)OCO3	0.8	5.5	/	-0.2%	-0.2
COc1ccc(Nc2nc(N)c([N+](=O)[O-])c(N3CCCC3)n2)cc1	/	89.9	/	/	5.2
CCCC(=O)Nc1c2c(nn1-c1ccc(C)cc1C)CSC2	2.6	3.5	23.8	2.6%	-1.1
N#CC1=C(N)N(c2ccccc2)C(c2ccco2)C1(C#N)C#N (centres undefined)	4.7	23.3	-4.4	-3.1%	8.5
CC(=O)C1=C(C)Nc2ncnn2C1c1ccccc1 (centres undefined)	/	0.1	/	/	-5.2

Quoted at random: 5 entries already listed
SMILES	Arbovirus inh	Mtb bLac sens	YopH PTP inh	Mtb H37Rv	RecA splice inh	others
CCCC(=O)Nc1c2c(nn1-c1ccc(C)cc1C)CSC2	2.6	3.5	23.8	2.6%	-1.1
O=C1c2ccccc2C(O)(c2ccccc2)N1c1ccncc1 (centres undefined)	/	3.1	/	-1.5%	1.1
CCN(CC)S(=O)(=O)c1ccc(C(=O)OCC(=O)N2CCN(C(=O)c3ccco3)CC2)cc1	3.2	-5.6	-39.8	-1.4%	-1.4	Arbovirus inh repeat=4.1
COc1ccc(Nc2nc(N)c([N+](=O)[O-])c(N3CCCC3)n2)cc1	/	89.9	/	/	5.2
CC(=O)C1=C(C)Nc2ncnn2C1c1ccccc1 (centres undefined)	/	0.1	/	/	-5.2

The list continues:
SMILES	Arbovirus inh	Mtb bLac sens	YopH PTP inh	Mtb H37Rv	RecA splice inh	others
CCC1NC(=S)NC(C)=C1C(=O)c1ccccc1 (centres undefined)	3.6	0.7	/	2.5%	5.4
COc1ccc(S(=O)(=O)N2CCC(C(=O)NCCC(=O)NCc3ccncc3)CC2)cc1	/	-1.4	/	/	-1.6
CC1CCCN(C(=O)CCS(=O)(=O)Cc2ccccc2)C1 (centres undefined)	4.1	-8.4	-7.7	-3.8%	-0.1
COc1ccc(Nc2nc(C(=O)N3CCc4ccccc4C3)cs2)cc1	-0.5	-0.6	/	-8.8%	21.0
COc1ccc(-c2cc(=O)[nH]c(=S)[nH]2)cc1	0.9	-3.2	/	2.4%	-2.4
CCCCC(=O)Nc1ccc(Cl)cn1	-3.9	3.5	-50.3	17.6%	0.3
CN(Cc1ccccc1)C(=O)COC(=O)c1ccc(Cl)cc1N	0.3	7.2	/	5.9%	4.7
Cc1nc(SCCO)c2oc3ccccc3c2n1	-2.1	3.4	-34.6	10.1%	-0.3
Cc1ccc(-n2nc(N)c3c(=O)oc(N(C)C)nc32)cc1	-5.8	-15.1	5.5	6.3%	-0.2
Cc1nnc(NC(=O)CSc2nnc(Cc3cccn3C)n2-c2cccc(C)c2C)s1	-4.8	0.8	-13.2	/	0.6	Arbovirus inh repeat=-3.4
COc1ccc(N(CC(=O)Nc2ccccc2C(=O)N2CCCC2)S(C)(=O)=O)cc1	/	-6.5	/	/	-0.4
CC1(c2nnc(Cc3ccccc3)o2)CC(c2ccc(OC(F)(F)F)cc2)=NO1 (centres undefined)	/	-11.3	/	/	3.3
CCCn1c(=O)c(C(=O)c2ccccc2)nc2ccccc21	12.7	1.4	-17.8	-2.3%	2.4
C/C=C(\C)C(=O)OC1c2c(ccc3ccc(=O)oc23)OC(C)(C)C1OC(C)=O (centres undefined)	-6.3	0.3	-9.6	-5.7%	2.8
COc1ccc(C(CC(=O)O)n2cnnn2)cc1 (centres undefined)	4.0	0.2	/	-1.7%	-0.3
COC(=O)c1ccc(NC(=O)CN(C2CCCCC2)S(C)(=O)=O)cc1	-2.3	-8.8	12.9	-7.1%	-0.8
Cc1nnc(SCC(=O)N2c3ccccc3CC2C)[nH]c1=O (centres undefined)	1.3	-2.5	-64.5	-3.9%	7.4
O=C(Nc1ccc(Br)cc1)c1cccc(NC(=O)C2C3CC4OC(=O)C2C4C3)c1 (centres undefined)	-12.8	5.7	-14.3	-8.8%	9.4
Cc1ccc(SCCc2cc[n+](CC(=O)c3ccccc3)cc2)cc1	-9.7	1.1	/	-1.5%	-1.1
O=C(c1cc2nc(-c3ccccc3)cc(C(F)(F)F)n2n1)N1CCOCC1	-1.7	-9.7	0.4	4.8%	-2.9
c1ccc(Cn2nnc3c(NCC4CCCO4)nc(C4CC4)nc32)cc1 (centres undefined)	2.1	36.2	/	8.2%	-1.4
Cc1nc(-c2ccccc2)sc1-c1nc(-c2cccs2)ncc1S(=O)(=O)c1ccccc1	8.0	/	-51.3	-9.2%	/
CCc1ccc(N(C(=O)c2csnn2)C(C(=O)NC2CCCCC2)c2cccnc2)cc1 (centres undefined)	/	3.5	/	/	-0.2
Cc1cc(O)c(-c2cc(C(=O)Nc3ccc(S(=O)(=O)N4CCOCC4)cc3)[nH]n2)cc1C	4.7	-2.6	-17.9	0.1%	0.5
Cc1sc2nc(-c3ccco3)oc(=O)c2c1C	0.1	71.1	2.9	7.4%	-1.2
COc1ccccc1CC(=O)Nc1ccc(-c2nnc(-c3ccco3)o2)cc1	0.6	-4.5	-38.4	3.3%	0.8	Arbovirus inh repeat=-8.8
CC1(C)Oc2ccc(C(=O)NC3CCCC3)cc2N(CC(=O)NC2CCCCC2)C1=O	-6.9	8.8	-20.4	-5.2%	-1.0
Cc1cc(C)cc(N(CC(=O)NCc2ccco2)C(=O)CCC(=O)Nc2ccccn2)c1	-0.8	/	-29.5	-5.1%	4.9
Cc1ccc(F)cc1NC(=O)CSc1nnc(CNC(=O)c2ccco2)n1C	/	-5.3	/	/	0.0
O=C(/C=C/Nc1ccc(F)cc1)c1ccco1	-7.5	-19.6	-15.2	-10.2%	-0.7
CCOC(=O)c1cc(C#N)c(SC)nc1C	/	-6.5	/	7.0%	-0.4
COc1ccc(/C=N/NC(=O)c2cccnc2)c(C(=O)O)c1OC	/	2.0	/	-1.9%	-1.9
C=CCN(C(=O)Cn1nc(C)n2c(cc3cc(C)ccc32)c1=O)c1ccccc1	/	1.8	/	/	7.4
CCN(CC(=O)Nc1cc(Cl)ccc1C)C(=O)c1cc([N+](=O)[O-])ccc1N1CCOCC1	/	-14.9	/	/	3.6
CCOc1c(Cl)cc(CNCC(C)C)cc1OC	4.5	-5.3	-15.9	-0.7%	-3.4
Cc1ccc(CSc2ccc(C(=O)N3CCOCC3)cc2[N+](=O)[O-])cc1	10.1	2.4	/	-1.9%	-2.3
N#C/C(=C/C=C/c1ccccc1)C(=O)Nc1ccccc1	-2.6	72.7	-8.6	-0.1%	/
O=C1CCCc2nc(N3CCCCC3)sc21	-10.2	2.1	-13.8	2.3%	-1.1
Cc1cccc2sc(NC(=O)C3=NN(c4ccccc4)C(=O)CC3)nc12	3.0	4.4	-37.6	7.2%	0.7
COCCn1c(=O)[nH]c2cc(C(=O)OC)ccc2c1=O	3.6	49.7	-41.9	4.1%	-1.1
COc1ccccc1CN1CC(C(=O)NCCCc2ccc(F)cc2)CCC1=O (centres undefined)	/	-4.7	/	/	2.1
N/C(=N\OC(=O)c1cc(-c2ccccc2)nc2ccccc12)c1ccncc1	-1.2	13.2	2.7	-9.0%	-4.9
Cc1ccc(C)c(C(=O)COc2ccc(C)nc2[N+](=O)[O-])c1	-3.0	0.7	-20.1	2.3%	-6.2
COc1ccc(OCC(=O)N/N=C/C2CC=CCC2)cc1 (centres undefined)	2.0	-1.5	/	-7.6%	-3.3
CCSc1nnc(NC(=O)Cc2ccc(OC)c(S(=O)(=O)N3CCOCC3)c2)s1	9.6	3.6	-32.1	0.5%	1.4
CCn1c(CC(=O)Nc2ccc(Cl)cc2)nnc1SCC(=O)N1CCOCC1	/	1.2	/	/	-0.1
CCCCn1c(N)c(N(CCOC)C(=O)COc2c(C)cccc2C)c(=O)[nH]c1=O	/	-6.2	/	/	-2.8
CCOC(=O)c1ccc(NC(=O)CSc2ccc(-c3ccccn3)nn2)cc1	/	98.4	/	/	-0.5
COC(=O)c1ccc2nc(Nc3nc4c(F)cc(F)cc4s3)sc2c1	-33.8	4.0	-23.8	3.6%	-5.1
O=C(CNC(=S)N(Cc1ccccc1F)C1CCCCC1)NC1CC1	5.9	-7.5	-6.5	-3.6%	1.0

(cont.)
SMILES	Arbovirus inh	Mtb bLac sens	YopH PTP inh	Mtb H37Rv	RecA splice inh	others
CCCCSc1cc(=O)[nH]c(N)n1	/	-3.0	/	0.8%	-7.4
COC(=O)c1ccc(S(=O)(=O)N(C2CCCCC2)C2CCCCC2)n1C	/	-0.8	/	5.4%	/
COC(=O)c1nn(-c2ccccc2)c(Cl)c1/C=N/O	1.2	-5.8	/	5.0%	-1.0
CCc1nccn1S(=O)(=O)c1ccc(OC)c(C)c1C	13.7	8.1	7.4	-0.9%	-0.7
COc1ccc(C)cc1S(=O)(=O)N(CC(=O)O)c1ccc(F)cc1	0.5	-5.0	-0.9	-6.0%	/
O=C(O)c1ccc(Oc2ccc(C(F)(F)F)cn2)cc1	13.1	-4.1	/	8.8%	-1.3
C=CCSc1nc(N)c2c3c(sc2n1)CN(C)CC3	/	-0.4	/	/	-8.8
O=C(NCC(=O)N1CCN(c2ccccc2)CC1)c1ccc(Cl)cc1	/	-1.7	/	/	0.6
Cc1cccc(NC(=O)CCN2CCN(C)CC2)c1	/	-0.8	/	/	-5.8
O=C(O)C1CSC(c2ccco2)N1 (centres undefined)	11.9	0.9	/	1.6%	0.5
CSc1ncccc1C(=O)NCC12CC3CC(CC(C3)C1)C2	-0.7	4.4	/	2.9%	-0.2
CC1(C)CC(=O)C2=C(C1)N(c1ncn[nH]1)C(N)=C(C#N)C2c1ccccc1 (centres undefined)	-12.1	1.7	-14.1	1.6%	0.1
Cc1nc2cc(C(=O)OCC(=O)NC3CCS(=O)(=O)C3)ccc2n1-c1ccccc1 (centres undefined)	4.4	-3.5	-32.6	-9.3%	0.9
Fc1cccc(NC(=S)NC2CCCCCCC2)c1	/	95.8	/	/	3.7
O=C(Nc1ccc(Cl)c(Cl)c1)N1CCCCCC1	/	3.2	/	/	3.8
O=C(Nc1ccc(Br)cc1)C1CCCC1	/	-2.8	/	/	0.5
COc1ccccc1NC(=O)Cc1noc(CSc2cc(C)c3ccccc3n2)n1	10.3	0.2	11.2	-9.4%	1.9
COc1cc(/C=C2/SC(=S)N(Cc3ccccc3)C2=O)cc(OC)c1O	/	2.4	/	/	16.9
COc1cc(CCC(=O)OCC(=O)N(CCC#N)c2ccccc2)cc(OC)c1OC	/	-0.2	/	/	0.9
Cc1cccc(NC(=O)CSc2ccc(-c3cccs3)nn2)c1C	-4.0	-2.0	-22.2	-2.4%	-1.0
CN1CCc2c(sc3nc(SCC(N)=O)n(-c4ccccc4)c(=O)c23)C1	1.5	9.5	1.5	9.3%	3.1	Arbovirus inh repeat=5.6
CCC(CC)C(=O)Nc1cccc(C(=O)NCCc2ccccc2)c1	4.3	4.6	/	-3.0%	-2.8
Cc1cc([N+](=O)[O-])c(Cl)cc1NC(=O)C(C)C	6.8	-10.3	-25.0	-3.4%	1.7
Cc1ccnc(NS(=O)(=O)c2ccc(NC(=O)c3cncc(Br)c3)cc2)n1	-7.8	-4.9	-9.9	-4.8%	-3.0
COc1ccc(CCN2C(=O)CC(Nc3ccc(N4CCOCC4)cc3)C2=O)cc1OC (centres undefined)	-4.5	-0.4	-6.5	7.9%	2.3
COC(=O)/C=C1/S/C(=N/NC(=O)c2ccccc2C)NC1=O	-6.5	6.5	-26.1	-4.5%	0.3
CC(C)CN1CC(C(=O)O)CC1=O (centres undefined)	-1.0	-8.8	/	-7.9%	-1.5
CC(C)(C)Nc1nc(Nc2ccc([N+](=O)[O-])cc2)nc(NC(C)(C)C)n1	/	95.0	/	/	-2.7
Cc1cccc(OCC(=O)NCC(=O)N=Nc2c(O)[nH]c3ccc([N+](=O)[O-])cc23)c1	/	-0.1	/	/	15.8
COc1ccccc1CN(Cc1ccco1)S(=O)(=O)c1ccc(-n2cnnn2)c(OC)c1	5.7	7.0	9.0	2.9%	10.0
COCCN(C(=O)Cc1cccs1)C(C(=O)NCc1ccc(OC)cc1)c1ccc(C(C)C)cc1 (centres undefined)	-21.1	0.8	1.0	2.5%	12.0
O=C1C2=C(c3ccccc31)[N+](=O)[C@@H]1CCCC[C@@H]1N2[O-]	-8.1	-3.7	58.6*	-10.9%	/
